Screening data deposited in PubChem BioAssay by Broad Institute.
rRNA inh HTS: reduced GFP signal of wild-type E. coli, primary screen, bacterial rRNA inhibitor project, GFP/RFP fluorescence, OD600, single point. GFP signal change (wild-type ribosome), % (test concentration not listed). 350,000 compounds, 1.6% hits. AID 720706, 2013. E. coli WT GFP vs humanized-ribosome RFP mutants, 24 h; stronger effect = lower value; DMSO median 0, no signal -100;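 active = significant combined selectivity score with lowered wild-type GFP, culture density cut under 30%, mutant RFP and density less affected; inactive = any of these conditions unmet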; note: one replicate is shown; some compounds called inactive have numbers as strong as hits
MLL AF4-AF9 inh: inhibitors of AF4 peptide binding to AF9, primary screen, biochemical, AlphaScreen, biotin-AF4 peptide, FLAG-AF9, single point. Protein AF-9 (Homo sapiens), P42568. inhibition, % at 10 µM. 350,000 compounds, 0.47% hits;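 active = every replicate reaching a set inhibition limit, whatever the replicate mean, cut at about 25% in these data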;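 note: 0% = plate neutral control median and 100% = total signal loss; the record names both 10 and 1 µM as test concentration; the first replicate is given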
Target sequence (P42568 whole entry, looked up): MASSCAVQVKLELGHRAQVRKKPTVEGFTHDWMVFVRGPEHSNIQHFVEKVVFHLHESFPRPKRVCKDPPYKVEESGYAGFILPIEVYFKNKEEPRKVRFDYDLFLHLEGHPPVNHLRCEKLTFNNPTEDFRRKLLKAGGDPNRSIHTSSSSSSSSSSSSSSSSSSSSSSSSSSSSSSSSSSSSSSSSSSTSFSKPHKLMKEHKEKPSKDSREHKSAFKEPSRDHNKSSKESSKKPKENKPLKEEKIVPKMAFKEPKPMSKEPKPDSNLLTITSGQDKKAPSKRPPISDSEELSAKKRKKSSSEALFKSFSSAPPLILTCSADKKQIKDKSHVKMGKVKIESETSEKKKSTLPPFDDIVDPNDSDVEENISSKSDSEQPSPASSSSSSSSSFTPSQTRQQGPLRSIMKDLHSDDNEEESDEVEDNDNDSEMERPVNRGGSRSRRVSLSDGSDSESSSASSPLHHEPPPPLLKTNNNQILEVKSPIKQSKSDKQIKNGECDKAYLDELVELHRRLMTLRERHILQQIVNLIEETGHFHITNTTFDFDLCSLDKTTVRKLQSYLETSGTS
rRNA inh HTS OD600: recorded beside rRNA inh HTS, whose call it bears; OD600 change, %; measured here: OD600 growth;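 optical density of the mix in the first replicate; 0 = DMSO median and -100 = no signal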
rRNA inh HTS RFP: second read-out of rRNA inh HTS, no call of its own (marks repeat the call); RFP signal change, %; measured here: RFP humanized mutant strains;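 first replicate; 0 = DMSO median and -100 = no signal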
* = called active by the depositor. This is a subset; count on the stated rates, not on these rows.

rRNA inh HTS	rRNA inh HTS OD600	rRNA inh HTS RFP	MLL AF4-AF9 inh	Structure
2	2	2.3	-2.4	O=C(C[C@H]1C=C[C@@H](NC(=O)c2cccnc2)[C@H](CO)O1)NCc1ccncn1
2	-10	4.8	1.0	CCCC#Cc1ccc([C@@H]2[C@H]3CN(Cc4ccncc4)CCCCN3[C@H]2CO)cc1
3	10	-0.6	4.9	CCCC(=O)N1CC2(CN(Cc3nccs3)C2)c2c([nH]c3cc(OC)ccc23)[C@H]1CO
-2	-1	-0.5	-0.3	O=C(C[C@@H]1CC[C@@H](NS(=O)(=O)c2cccc(F)c2)[C@@H](CO)O1)NCc1ccc2c(c1)OCO2
4	12	-0.9	5.0	COC(=O)C[C@H]1C[C@@H]2c3cc(N)ccc3O[C@@H]2[C@H](CO)O1
-1	-9	-1.0	0.5	O=S(=O)(N[C@@H]1CC[C@@H](CCn2cc(-c3ccccn3)nn2)O[C@@H]1CO)c1cccc(Cl)c1
8	6	5.7	-3.4	C[C@@H]1CN([C@@H](C)CO)C(=O)c2cc(C#CC3CCCC3)cnc2O[C@@H]1CN(C)C(=O)C1CCCCC1
-2	1	1.3	-2.8	CC(C)NC(=O)Nc1ccc2c(c1)CC(=O)N([C@H](C)CO)C[C@@H](C)[C@@H](CN(C)S(=O)(=O)c1ccc(Cl)cc1)O2
-1	6	-1.6	-1.9	C[C@H]1CN([C@@H](C)CO)C(=O)c2cccc(NS(=O)(=O)c3ccc(Cl)cc3)c2O[C@@H]1CN(C)Cc1ccc(C(=O)Nc2ccccc2N)cc1
-2	-11	9.9	5.0	C[C@@H]1CN([C@@H](C)CO)C(=O)c2cc(NC(=O)Nc3ccc(F)cc3)ccc2O[C@@H](C)CCCCO[C@@H]1CN(C)Cc1ccccc1
4	-2	-1.6	-2.0	COCC#Cc1cnc2c(c1)C(=O)N([C@H](C)CO)C[C@H](C)[C@H](CN(C)C)O2
-3	-8	-1.3	0.5	C[C@@H]1CN([C@@H](C)CO)C(=O)Cc2cc(NC(=O)Nc3ccc(C(F)(F)F)cc3)ccc2O[C@H]1CN(C)S(=O)(=O)c1ccccc1
-5	-5	1.5	-0.7	C[C@@H]1CN([C@H](C)CO)S(=O)(=O)c2ccc(-c3ccc(F)cc3)cc2O[C@H]1CN(C)C(=O)Nc1ccccc1F
-1	-2	-0.1	-15	Cc1noc(C)c1NC(=O)N(C)C[C@@H]1OCCCC[C@H](C)Oc2ccc(NS(=O)(=O)c3ccc(Cl)cc3)cc2C(=O)N([C@@H](C)CO)C[C@@H]1C
-2	-2	-0.8	0.2	C[C@@H]1CCCCO[C@@H](CN(C)S(=O)(=O)c2ccc(F)cc2)[C@H](C)CN([C@H](C)CO)C(=O)c2cc(NC(=O)C3CCCCC3)ccc2O1
-3	-8	5.4	6.1	CO[C@@H]1CN(C)C(=O)c2cc(NC(=O)Nc3ccc(Cl)cc3)ccc2OC[C@@H](C)NC[C@@H]1C
3	5	-4.4	-1.4	C[C@H]1CN([C@@H](C)CO)C(=O)c2cc(-c3cncnc3)cnc2O[C@H]1CN(C)C(=O)c1cccc(F)c1
2	2	0.2	-0.5	O=C(C[C@H]1C=C[C@@H](NC(=O)NC2CCCC2)[C@H](CO)O1)NCc1ccc(F)cc1
-6	-8	1.9	0.8	COc1ccccc1S(=O)(=O)N[C@H]1CC[C@H](CCn2cc(C3CCCCC3)nn2)O[C@H]1CO
0	5	-3.5	-1.0	CCCNC(=O)N(C)C[C@@H]1Oc2ncc(-c3ccc(OC)cc3)cc2C(=O)N([C@H](C)CO)C[C@@H]1C
2	2	3.2	1.9	O=C(/C=C/[C@H]1O[C@@H](n2ccc(=O)[nH]c2=O)[C@H](O)[C@@H]1O)N1CCN(Cc2ccc(F)cc2)CC1
-3	-9	1.2	0.8	CO[C@@H]1CN(C)C(=O)c2cc(NS(C)(=O)=O)ccc2OC[C@@H](C)N(Cc2ccccc2)C[C@H]1C
4	8	-0.6	5.1	C[C@H](CO)N1C[C@H](C)[C@@H](CN(C)C(=O)CN(C)C)Oc2ncc(/C=C/c3ccccc3)cc2C1=O
2	4	1.6	-0.7	COc1ccc(S(=O)(=O)Nc2cccc3c2O[C@@H](CN(C)Cc2ccncc2)[C@H](C)CN([C@@H](C)CO)C3=O)cc1
-2	8	-1.7	-12	CC(C)NC(=O)N(C)C[C@H]1Oc2ncc(C3=CCCCC3)cc2C(=O)N([C@@H](C)CO)C[C@@H]1C
-2	-2	0.5	3.1	CC(C)NC(=O)N(C)C[C@H]1Oc2ncc(C#Cc3ccc(F)cc3)cc2C(=O)N([C@@H](C)CO)C[C@H]1C
-1	-2	-0.3	3.9	Cc1noc(C)c1S(=O)(=O)N(C)C[C@@H]1OCc2ccccc2-c2c(n(C)c3ccccc23)C(=O)N([C@@H](C)CO)C[C@@H]1C
-4	-22	-3.8	0.3	CSc1ccc(CN2CCC2(C)C(=O)Nc2cccc(NS(C)(=O)=O)c2)cc1 (configuration not stated)
1	3	-0.4	0.0	O=C(Nc1ccncc1)C1CC(=O)N(c2ccccc2)C1 (configuration not stated)
4	11	-0.1	-0.3	CO[C@@H](CN(C)Cc1ccc2c(c1)OCO2)[C@@H](C)CN(C(=O)c1ccccc1)[C@H](C)CO
-3	-8	-0.5	2.3	C[C@H](CO)N1C[C@H](C)[C@H](CN(C)S(=O)(=O)c2cn(C)cn2)Oc2cc(C3=CCCC3)ccc2S1(=O)=O
2	4	-3.9	-2.3	CCC(=O)N(C)C[C@@H]1Oc2ncc(Br)cc2C(=O)N([C@H](C)CO)C[C@@H]1C
-7	-13	0.9	-2.3	CC(=O)N1CC2(C1)[C@H](c1ccc(-c3ccc(C#N)cc3)cc1)[C@H](CO)N2CCC(F)(F)F
-8	-25	4.5	2.6	CC(C)C#Cc1ccc2c(c1)O[C@H](CN(C)C(=O)c1ccccc1)[C@H](C)CN([C@@H](C)CO)S2(=O)=O
1	10	-1.1	-1.8	Cn1nccc1-c1ccc(C(=O)NCc2ccco2)c2occc12
1	-3	-2.0	-8.3	C[C@H](CO)N1C[C@H](C)[C@H](CN(C)C(=O)c2ccccc2)OCCCC[C@H](C)Oc2ccc(NC(=O)CCC(F)(F)F)cc2C1=O
0	5	5.6	-3.0	O=S(=O)(c1ccccc1F)N1CCCCN2[C@H](C1)[C@H](c1ccc(-c3ccccc3)cc1)[C@@H]2CO
-5	-13	3.9	-3.7	C[C@@H]1CN([C@H](C)CO)C(=O)c2cc(C3=CCCC3)cnc2O[C@@H]1CN(C)C(=O)Nc1ccc(C(F)(F)F)cc1
1	6	-4.4	-1.0	CC(C)NC(=O)N(C)C[C@H]1OCc2ccccc2-c2c(n(C)c3ccccc23)C(=O)N([C@H](C)CO)C[C@@H]1C
-6	-10	3.3	1.0	CCCC(=O)Nc1ccc2c(c1)C(=O)N(C)C[C@@H](OC)[C@@H](C)CN(Cc1ccccc1F)[C@H](C)CO2
-6	-7	-0.9	0.3	O=S(=O)(N[C@H]1CC[C@@H](CCn2cc(-c3ccccn3)nn2)O[C@H]1CO)c1cccc(Cl)c1
-5	-6	3.8	-1.5	Cc1ccc(S(=O)(=O)Nc2ccc3c(c2)C(=O)N([C@@H](C)CO)C[C@@H](C)[C@H](CN(C)S(=O)(=O)c2ccccc2)O3)cc1
1	-3	-1.5	-4.6	CC(C)NC(=O)N(C)C[C@H]1OCCCC[C@H](C)Oc2ccc(NC(=O)Nc3ccc(F)cc3)cc2C(=O)N([C@@H](C)CO)C[C@H]1C
2	-5	-0.6	-0.4	CCNC(=O)[C@@H]1[C@@H](CO)[C@@H]2Cn3c(ccc(-c4ccc(OC)cc4)c3=O)[C@H]1N2S(C)(=O)=O
-1	-5	-1.4	-3.6	CCCNC(=O)Nc1ccc2c(c1)OC[C@H](C)N(CCC)C[C@@H](C)[C@H](OC)CN(C)C2=O
10	2	-0.5	-1.0	CN(C)C(=O)C[C@H]1CC[C@@H]2[C@@H](COc3ccc(NC(=O)C4CCOCC4)cc3C(=O)N2C)O1
2	0	0.0	1.9	COc1ccc(CN(C)C[C@@H]2OCCCC[C@@H](C)Oc3ccc(NC(=O)CCC(F)(F)F)cc3C(=O)N([C@H](C)CO)C[C@H]2C)cc1
-6	-1	0.5	1.4	C[C@H]1CN([C@@H](C)CO)C(=O)c2cccc(NS(=O)(=O)c3ccc(F)cc3)c2O[C@@H]1CN(C)S(=O)(=O)c1cccs1
-4	-2	3.1	2.4	CCC(=O)N1CC2(C1)[C@H](c1ccc(-c3ccc(C)cc3)cc1)[C@@H](CO)N2S(=O)(=O)CC
-4	-10	-3.0	-0.1	COc1ccc(S(=O)(=O)Nc2ccc3c(c2)C(=O)N([C@H](C)CO)C[C@H](C)[C@@H](CN(C)S(=O)(=O)c2ccc(Cl)cc2)OCCCC[C@H](C)O3)cc1
1	-2	0.7	3.1	C[C@@H]1CN([C@@H](C)CO)C(=O)c2cccc(NC(=O)C3CC3)c2O[C@H]1CN(C)Cc1ccc(Oc2ccccc2)cc1
0	8	-2.7	-2.3	O=C([C@@H]1[C@@H](CO)[C@@H]2Cn3c(ccc(-c4cncnc4)c3=O)[C@@H]2N1CC1CC1)N1CCCCC1
0	-1	2.1	-1.0	CO[C@H]1CC[C@H]2CCN(C)C(=O)[C@H](C)N(C)C(=O)c3cc(C#N)ccc3OC[C@@H]1O2
-3	6	-5.0	-0.7	O=C(C[C@@H]1CC[C@H](NS(=O)(=O)c2ccc(F)cc2)[C@H](CO)O1)N1CCc2ccccc2C1
-8	-26	-5.5	-3.7	COc1ccc(NC(=O)c2cc(-c3cc(F)ccc3OC)n[nH]2)cn1
2	3	-1.9	-8.7	C[C@@H]1CCCCO[C@@H](CN(C)C(=O)c2ccccc2)[C@@H](C)CN([C@H](C)CO)C(=O)c2cc(NC(=O)C3CCCCC3)ccc2O1

Fetched by compound from the entries so far (four):
rRNA inh HTS	rRNA inh HTS OD600	rRNA inh HTS RFP	MLL AF4-AF9 inh	Structure
0	-1	2.1	-1.0	CO[C@H]1CC[C@H]2CCN(C)C(=O)[C@H](C)N(C)C(=O)c3cc(C#N)ccc3OC[C@@H]1O2
-4	-2	3.1	2.4	CCC(=O)N1CC2(C1)[C@H](c1ccc(-c3ccc(C)cc3)cc1)[C@@H](CO)N2S(=O)(=O)CC
-8	-26	-5.5	-3.7	COc1ccc(NC(=O)c2cc(-c3cc(F)ccc3OC)n[nH]2)cn1
-3	6	-5.0	-0.7	O=C(C[C@@H]1CC[C@H](NS(=O)(=O)c2ccc(F)cc2)[C@H](CO)O1)N1CCc2ccccc2C1

More compounds
rRNA inh HTS	rRNA inh HTS OD600	rRNA inh HTS RFP	MLL AF4-AF9 inh	Structure
-4	-8	2.8	-1.1	COc1ccccc1C(=O)Nc1ccc2c(c1)C(=O)N(C)[C@@H]1CC[C@@H](CC(=O)NCc3ccc(Cl)c(Cl)c3)O[C@H]1CO2
3	-3	2.7	-0.2	C[C@@H]1CN([C@H](C)CO)C(=O)c2cc(NS(=O)(=O)c3cn(C)cn3)ccc2O[C@@H](C)CCCCO[C@@H]1CN(C)C(=O)CCC(F)(F)F
5	-18	11	5.5	O=C1CN(Cc2ccccc2)C[C@H]2[C@H](c3ccc(-c4ccccc4)cc3)[C@@H](CO)N12
0	11	-2.1	-0.7	COc1ccc2c3c([nH]c2c1)[C@@H](CO)N(C(=O)C1CCOCC1)CC31CN(Cc2nccs2)C1
5	-11	-6.2	-1.6	O=C(c1cc(Cl)cc(Cl)c1)N1CCC(=O)N([C@H](COCc2ccccc2)Cc2ccccc2)CC1
2	4	0.6	-0.2	CN1CCN(C(=O)C[C@@H]2CC[C@H]3[C@H](COc4ccc(NC(=O)C5CC5)cc4C(=O)N3C)O2)CC1
3	3	0.1	-8.2	COc1ccc(S(=O)(=O)Nc2ccc3c(c2)C(=O)N([C@H](C)CO)C[C@@H](C)[C@H](CN(C)Cc2ccc(C(=O)O)cc2)O3)cc1
-3	-6	2.9	3.3	CCCC(=O)Nc1ccc2c(c1)OC[C@@H](C)N(Cc1cccc(F)c1)C[C@@H](C)[C@@H](OC)CN(C)C2=O
1	2	0.0	2.1	CO[C@@H]1CN(C)C(=O)c2cc(NC(=O)c3cc(C)on3)ccc2OC[C@H](C)N(C(C)=O)C[C@@H]1C
3	12	-2.2	-2.6	O=C(Cc1ccccn1)NCC[C@H]1CC[C@@H](NS(=O)(=O)c2ccccc2)[C@H](CO)O1
0	-3	-2.1	1.6	COCCNC[C@@H]1[C@@H](c2ccccc2)[C@@H](CO)N1c1nc(C)c(C)s1
5	-2	-3.8	1.1	CCCN(C)C[C@H]1Oc2ncc(-c3cccc(C#N)c3)cc2C(=O)N([C@H](C)CO)C[C@@H]1C

Exported field by field: part of the list above.
> CSc1ccc(CN2CCC2(C)C(=O)Nc2cccc(NS(C)(=O)=O)c2)cc1 (configuration not stated)
- rRNA inh HTS = -4
- rRNA inh HTS OD600 = -22
- rRNA inh HTS RFP = -3.8
- MLL AF4-AF9 inh = 0.3

> O=C(C[C@H]1C=C[C@@H](NC(=O)c2cccnc2)[C@H](CO)O1)NCc1ccncn1
- rRNA inh HTS = 2
- rRNA inh HTS OD600 = 2
- rRNA inh HTS RFP = 2.3
- MLL AF4-AF9 inh = -2.4

> C[C@@H]1CN([C@@H](C)CO)C(=O)c2cccc(NC(=O)C3CC3)c2O[C@H]1CN(C)Cc1ccc(Oc2ccccc2)cc1
- rRNA inh HTS = 1
- rRNA inh HTS OD600 = -2
- rRNA inh HTS RFP = 0.7
- MLL AF4-AF9 inh = 3.1
